Screens deposited in PubChem by several laboratories.
PrP 5UTR inh: inhibition of PrP 5' UTR reporter expression; cell-based PrP 5' UTR mRNA reporter, plate reader; inhibition, % (concentration not given with the values); actives 0.35% (n = 340,000); AID 488862;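 active = every replicate at 50% or more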;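 note: 0 = median of the neutral control wells; tested in H4 reporter cells; numbers are from one replicate; inactives centre near -14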
Mtb hypoxia inh: inhibitors of hypoxia-regulated fluorescent reporter in Mycobacterium tuberculosis; M. tuberculosis hypoxia-regulated fluorescent reporter, fluorescence; fluorescence inhibition, % (concentration not given with the values); actives 0.1% (n = 300,000); AID 1159583;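 active = 35 to 45% if threefold the growth effect, above 45% if 1.5-fold the growth effect; inactive = the rest, general growth blockers included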;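 note: wells of about 50 µL received 100 nL stock; 0% = vehicle wells and 100% = reference inhibitor wells; whole bacteria with a GFP reporter of the hypoxia response; strong numbers were not always called active; many hits fall short of the cut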
ugtP null kill: kills S. aureus RN4220 lacking UgtP; actives 0.54% (n = 330,000); growth inhibition, % (concentration not given with the values); S. aureus RN4220 ugtP deletion, OD600 growth, 16 h; some inactives read as strong as hits; AID 1259309;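 active = z-score under -3 and OD600 up to 0.15 on both plates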;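 note: plate controls were untreated wells for no effect and antibiotic for full effect; wells of about 80 µL received 100 nL stock; the first replicate is given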
Sa RN4220 lethal: kills Staphylococcus aureus RN4220; actives 0.33% (n = 330,000); S. aureus RN4220 growth, OD600, 16 h; inhibition, % (no concentration beside the values); AID 1259311;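 active = z-score of -3 or lower and OD600 up to 0.18 on both plates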;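 note: plate controls were untreated cells for no effect and reference antibiotic for full effect; stock transfer was 100 nL into about 80 µL; one replicate is shown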
Bead autofluor: compound fluorescence in toxin protease inhibitor counterscreen | compound autofluorescence counterscreen, microsphere flow cytometry; stronger effect = higher value | fluorescence intensity (test concentration not listed) | actives 3.1% (n = 360,000);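 active = at least 3 SD above the mean of all compounds, about 16000 in these data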;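 note: 100 nL of 1 mM stock went into each well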
BJeLR lethal: kills HRASV12-expressing BJeLR cells; BJeLR (HRASV12) viability, CellTiter-Glo ATP luminescence, 48 h; reference of the scale not given here; actives 0.17% (n = 300,000); inhibition, % (no concentration beside the values);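 active = replicate mean above 50%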;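 note: 50 nL library stock added to about 25 µL; numbers are from one replicate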
Mtb hypoxia inh growth: also measured in Mtb hypoxia inh; calls as there; growth inhibition, %; measured here: M. tuberculosis growth (absorbance);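 0% = vehicle and 100% = reference antibiotic; read after six days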
An asterisk follows results filed as active; · = not tested or not shown.

SMILES	PrP 5UTR inh	Mtb hypoxia inh	Mtb hypoxia inh growth	ugtP null kill	Sa RN4220 lethal	Bead autofluor	BJeLR lethal
COC(=O)c1ccc(OCCN2C3=NCCN3c3ccccc32)cc1	-19	13	16	5	3.9	9113	1
COCn1c(-c2cccc(Br)c2)nc2ccccc21	-51	-2	-6	5	-1.4	19656*	6
Nc1c(Cl)ncnc1N1CCN(c2ncnc(Cl)c2N)CC1	-15	4	-1	3	1.9	2021	-1
Cc1ccc(C)c(-c2nnc(NC(=O)c3ccco3)o2)c1	-18	-1	-4	6	15	5891	1
COc1ccc2[nH]c(=O)c(C(c3nnnn3C3CCCC3)N3CCN(Cc4ccc5c(c4)OCO5)CC3)cc2c1 (configuration not stated)	-16	-1	17	-5	6.7	5893	3
CCc1ccc(Nc2n[n+](-c3ccccc3)c(-c3ccc(C(=O)O)cc3)s2)cc1	-9	4	-5	9	2.3	4306	4
CN1CCN(c2ccc(NC(=O)Oc3ccccc3)cc2)CC1	1	·	·	6	2.8	2354	3
Cc1ccc(SCCNC(=O)/C=C/c2ccccc2Cl)cc1	-14	7	11	-10	-0.8	11689	-11
Cn1c(SCC(=O)N2CCOCC2)nnc1-c1ccc(NC(=O)c2ccccc2F)cc1	-20	-4	2	-26	-6.3	8750	2
COc1cccc(/C=N/NC(=S)Nc2cccc(S(=O)(=O)N(C)C)c2)c1	-15	·	·	·	·	4246	-11
CCn1cc(S(=O)(=O)Nc2ccc(Cl)cc2F)cn1	-11	0	0	5	4.7	5568	-1
O=C(COc1ccc([N+](=O)[O-])cc1)NCc1cccnc1	-9	4	6	4	4.5	2150	-2

Arranged by molar mass (lowest first): some entries from above
SMILES	PrP 5UTR inh	Mtb hypoxia inh	Mtb hypoxia inh growth	ugtP null kill	Sa RN4220 lethal	Bead autofluor	BJeLR lethal
Cc1ccc(C)c(-c2nnc(NC(=O)c3ccco3)o2)c1	-18	-1	-4	6	15	5891	1
O=C(COc1ccc([N+](=O)[O-])cc1)NCc1cccnc1	-9	4	6	4	4.5	2150	-2
COC(=O)c1ccc(OCCN2C3=NCCN3c3ccccc32)cc1	-19	13	16	5	3.9	9113	1

6 neighbouring records already listed, for reference:
SMILES	PrP 5UTR inh	Mtb hypoxia inh	Mtb hypoxia inh growth	ugtP null kill	Sa RN4220 lethal	Bead autofluor	BJeLR lethal
COC(=O)c1ccc(OCCN2C3=NCCN3c3ccccc32)cc1	-19	13	16	5	3.9	9113	1
COCn1c(-c2cccc(Br)c2)nc2ccccc21	-51	-2	-6	5	-1.4	19656*	6
Nc1c(Cl)ncnc1N1CCN(c2ncnc(Cl)c2N)CC1	-15	4	-1	3	1.9	2021	-1
Cc1ccc(C)c(-c2nnc(NC(=O)c3ccco3)o2)c1	-18	-1	-4	6	15	5891	1
COc1ccc2[nH]c(=O)c(C(c3nnnn3C3CCCC3)N3CCN(Cc4ccc5c(c4)OCO5)CC3)cc2c1 (configuration not stated)	-16	-1	17	-5	6.7	5893	3
CCc1ccc(Nc2n[n+](-c3ccccc3)c(-c3ccc(C(=O)O)cc3)s2)cc1	-9	4	-5	9	2.3	4306	4

(continued)
SMILES	PrP 5UTR inh	Mtb hypoxia inh	Mtb hypoxia inh growth	ugtP null kill	Sa RN4220 lethal	Bead autofluor	BJeLR lethal
Cc1cc(S(=O)(=O)N(C)CCc2ccccc2)ccc1-n1cnnn1	-6	·	·	8	-0.5	6489	-2
COc1ccc(C(=O)NNC(=O)C2CC=CCC2)cc1 (configuration not stated)	-10	17	8	0	0.9	3902	-8
CC1CCCCC1NC(=O)c1cccc(N2C(=O)C3C4C=CC(C4)C3C2=O)c1 (configuration not stated)	-14	6	6	-2	1.0	5635	4
COc1ccccc1C=NNC(=O)c1sc(C)nc1C	·	1	5	6	1.7	·	·
CCOc1cc(-c2ccccc2)nc(N)n1	-45	9	12	-5	9.8	4364	-3
CCCn1c(N)c(C(=O)COc2ccc(Br)cc2F)c(=O)n(C)c1=O	-30	12	9	11	5.9	4557	-25
COc1ccc(C=C(C(C)=O)C(C)=O)cc1OC	-3	5	9	3	6.7	3846	-1
Clc1ccc(C2=CSC3=NCCN23)c(Cl)c1	6	8	2	6	2.6	·	-2
CCOC(=O)c1c(NC(=O)C2c3ccccc3Oc3ccccc32)sc(C(N)=O)c1C	-29	·	·	-1	-5.0	4813	6
Cc1c(N=NC2=C(O)CC(C)(C)CC2=O)c(=O)n(-c2ccccc2)n1C	-3	12	7	-7	-6.9	2006	8
C=Cn1ccnc1CC(O)c1ccc(OC)cc1 (configuration not stated)	-7	3	3	12	3.2	2950	-4
Cc1cc(=O)n2nc(N3CCC(C(=O)N4CCN(Cc5ccccc5)CC4)CC3)sc2n1	-11	0	4	9	9.5	2984	-6
Cc1nc2sc3c(c2c(=O)n1NC(=O)CCl)CCCC3	-16	14	2	3	6.2	4317	-2
Cc1c(NC(=O)c2ccc(NS(=O)(=O)c3ccccc3)cc2)c(=O)n(-c2ccccc2)n1C	-44	3	3	9	3.9	4887	-10
COc1cc(OC)cc(-c2c(C#Cc3ccsc3)c3cc(-c4ccc5[nH]ccc5c4)ccc3n2C)c1	-17	2	11	-10	0.8	4016	·
CNC[C@H]1Oc2c(NS(=O)(=O)c3ccc(OC)cc3)cccc2C(=O)N([C@H](C)CO)C[C@H]1C	-7	5	8	-1	-11	4185	·
CCN(CC(=O)NC(C)(C)C)C(=O)c1ccc(Br)cc1	-14	4	-4	1	0.7	4852	·
CCCNC(=S)N1CCN(c2nc(-c3cccc(OC)c3)cs2)CC1	-27	13	5	-1	-3.5	4129	-2
CC(O)(C#CCN1CCCCC1)c1ccccc1 (configuration not stated)	-17	9	-2	6	2.9	6387	2
CCOc1c2ccc(C(=O)NCc3ccc4c(c3)OCO4)cc2nn1CC	-13	10	2	1	7.4	3048	15
CC(SCc1ccccc1)C(=O)Nc1ccccc1Br (configuration not stated)	7	0	7	4	7.9	4143	-5
CC(=O)NC(=S)Nc1ccc(N2CCOCC2)c(S(=O)(=O)Nc2cc(Cl)ccc2Cl)c1	-11	4	-1	7	18	4498	1
COC(C(=O)NCc1ccc(C)cc1)c1ccccc1 (configuration not stated)	-26	4	10	-1	4.8	2023	-11
Cc1cccc(N2CCN(C(=O)c3ccc4nc[nH]c4c3)CC2)c1C	-14	0	2	3	6.8	7911	7
COC(=O)c1cc(C)sc1NC(=O)CC1Nc2ccccc2NC1=O (configuration not stated)	-9	9	-2	1	3.4	4225	·
Nc1nc(-c2ccc(C(=O)O)cc2)cs1	-25	-1	5	-1	4.0	4342	6
CC(=O)N/C(=C\c1ccccc1)C(=O)OCC(=O)N1CCCCCC1	3	-2	1	4	1.7	6460	5
COC(=O)/C=C1\NC(=O)C(C)S1 (configuration not stated)	-50	·	·	·	·	4258	7
CC(C)c1ccc(C=Nn2cnnc2)cc1	·	14	5	12	3.7	·	·
Cn1cncc1COC(=O)c1ccc(Cl)cc1	-13	10	6	3	3.5	2928	-3
CCOC(=O)CC1c2ccc(C(F)(F)F)cc2S(=O)(=O)N1C(C)C (configuration not stated)	·	12	13	-5	1.2	·	·
O=C(CN1C(=O)c2cccc3cccc1c23)NCC1CCCO1 (configuration not stated)	-20	·	·	0	0.7	2639	6
O=S(=O)(/N=C(/Nc1cccc2ccccc12)c1ccccc1)c1ccccc1	-13	-2	-4	3	-0.1	3746	-8
CCOc1ccc(CN2C(=O)c3ccccc3Sc3ccc(C(=O)NCCCN4CCOCC4)cc32)cc1	8	8	-8	-2	-2.1	4929	-1
Cc1ccccc1N1CC(C(=O)N2CCCCCC2)CC1=O (configuration not stated)	-7	0	-2	9	3.8	6135	5
CCCNc1nc(Nc2ccc(C)c(Cl)c2)c2cnn(C)c2n1	-10	-4	-2	-36	0.0	4264	4

By substructure, the entries above containing a COOH group
SMILES	PrP 5UTR inh	Mtb hypoxia inh	Mtb hypoxia inh growth	ugtP null kill	Sa RN4220 lethal	Bead autofluor	BJeLR lethal
CCc1ccc(Nc2n[n+](-c3ccccc3)c(-c3ccc(C(=O)O)cc3)s2)cc1	-9	4	-5	9	2.3	4306	4
Nc1nc(-c2ccc(C(=O)O)cc2)cs1	-25	-1	5	-1	4.0	4342	6

Later entries.
SMILES	PrP 5UTR inh	Mtb hypoxia inh	Mtb hypoxia inh growth	ugtP null kill	Sa RN4220 lethal	Bead autofluor	BJeLR lethal
COc1ccc(C=NNC(=O)CNC(=O)c2ccc(S(=O)(=O)N3CCOCC3)cc2)cc1OC	·	7	4	2	3.6	·	·
O=C(COc1ccc2c(-c3ccccc3)cc(=O)oc2c1)NCC1CCC(C(=O)O)CC1 (configuration not stated)	-20	·	·	-7	3.9	5565	-1
CC(=O)c1cc(NC(=O)c2ccc(C)cc2)c(=O)oc1C	-12	-2	1	3	6.0	4216	-4
CC1(C)CC(=O)N(CC(=O)NCc2ccccc2)c2ccccc2S1(=O)=O	-6	·	·	7	1.9	5699	-9
CCOC(=O)NC(=O)CSc1nc(-c2ccc(C)c(C)c2)cn1-c1ccccc1	-65	5	3	-15	-1.3	1958	-3
Cc1cccc(CCNC(=O)C2CCC(=O)N(Cc3ccc(Cl)cc3)C2)n1 (configuration not stated)	-4	4	-8	1	5.5	5686	-3
C=CCSc1nc(Cc2ccc(Cl)cc2)nc2ccccc12	-15	-1	-17	22	-3.5	23640*	1
COC(=O)C(Cc1ccccc1)NS(=O)(=O)c1ccccc1Br (configuration not stated)	-5	22	13	5	9.2	3417	2
CCCCOc1ccc(Cc2c(O)nc(SC)[nH]c2=O)cc1	-35	10	19	17	2.7	3231	-2
COc1ccc(Nc2ccc3ccccc3c2)cc1	-48	3	7	17	2.3	3980	·
Cc1nc2oc3ccc(F)cc3c(=O)c2cc1C(=O)O	-24	-7	-6	10	7.4	3248	-3
O=C(O)CC1CCC(=C(Cl)Cl)C1 (configuration not stated)	-24	22	5	11	5.7	6706	·
CC(=O)c1ccc(S(=O)(=O)NCCC(=O)NCCc2c[nH]c3ccccc23)cc1	-23	-11	3	-3	8.5	4033	·
Cc1ccc(NC(=O)c2sc3nc4c(c(-c5ccco5)c3c2N)CCC4)cc1	-3	1	5	7	-1.2	2362	6
COc1cccc(N2CC(C(=O)NCc3n[nH]c(=O)c4ccccc34)CC2=O)c1 (configuration not stated)	-2	-2	4	4	-0.1	13140	-2
COc1ccc(CN(C)C(=O)c2cccc(S(=O)(=O)N3CCc4ccccc43)c2)c(OC)c1	-9	-7	-8	4	7.9	4092	·
Cc1cc2cc(C)c(NCCNC(=O)c3ccccc3)nc2cc1C	-2	-26	-21	1	-9.6	2190	5
O=C(N/N=C\c1ccc(CN(Cc2ccc(Cl)cc2)S(=O)(=O)c2ccccc2)o1)C(=O)Nc1ccc(F)cc1	-24	·	·	·	·	5038	3
CCCNC(=O)N1[C@H]2CC[C@@H]1C(C(=O)OC)=C(c1ccc3ccccc3c1)C2	-3	8	8	4	0.0	3786	·
CCN(CC)c1ccc(N=Nc2ncn[nH]2)cc1	-65	24	1	1	4.4	4482	-2
